# Screening results: PubChem, National Center for Advancing Translational Sciences (NCATS)
# miR-21 reporter = raises the signal of a miR-21 reporter; HeLa miR-21 FLuc reporter, luciferase, 48 h; Potency, µM (series often up to 38.3 µM), without a hit: top-dose reporter change, positive = more light; 340,000 tested, under 10 active; active = well fitted rising curve with a large enough effect; inconclusive = small, poorly fitted or top-dose-only effect; inactive = no such curve, though single readings can be large or run the other way;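 further: % of control where 0% means no effect; miR-21 action dims this reporter so a rising signal means less miR-21 action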
#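 Compounds were titrated across several concentrations (up to approximately 40 uM) and incubated 48 hours with HeLa miR-21-FLuc reporter cells (miR-21 target sequence downstream of FLuc, endogenous miR-21). Readout was firefly luciferase luminescence after lytic detection reagent.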
# Rango-impB inh = prevents formation of the Rango-importin beta complex; Q14974; Rango CFP/YFP FRET sensor + importin beta, 45 min; Potency, µM (titrated, usually from 92.2 µM), for inactives: at the top dose inhibition of complex formation; 340,000 tested, 0.031% active; AID 540263; active = rising FRET ratio curve, often small or poorly fitted; inconclusive = mostly compound fluorescence or quenching in the first reads; inactive = flat curves in all reads;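 further: potency means the concentration at half of the fitted maximal effect; 0% = DMSO wells and 100% = buffer wells lacking importin beta; nearly all actives have a fitted effect of over 15% in size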
# Target sequence (Q14974 whole entry, looked up): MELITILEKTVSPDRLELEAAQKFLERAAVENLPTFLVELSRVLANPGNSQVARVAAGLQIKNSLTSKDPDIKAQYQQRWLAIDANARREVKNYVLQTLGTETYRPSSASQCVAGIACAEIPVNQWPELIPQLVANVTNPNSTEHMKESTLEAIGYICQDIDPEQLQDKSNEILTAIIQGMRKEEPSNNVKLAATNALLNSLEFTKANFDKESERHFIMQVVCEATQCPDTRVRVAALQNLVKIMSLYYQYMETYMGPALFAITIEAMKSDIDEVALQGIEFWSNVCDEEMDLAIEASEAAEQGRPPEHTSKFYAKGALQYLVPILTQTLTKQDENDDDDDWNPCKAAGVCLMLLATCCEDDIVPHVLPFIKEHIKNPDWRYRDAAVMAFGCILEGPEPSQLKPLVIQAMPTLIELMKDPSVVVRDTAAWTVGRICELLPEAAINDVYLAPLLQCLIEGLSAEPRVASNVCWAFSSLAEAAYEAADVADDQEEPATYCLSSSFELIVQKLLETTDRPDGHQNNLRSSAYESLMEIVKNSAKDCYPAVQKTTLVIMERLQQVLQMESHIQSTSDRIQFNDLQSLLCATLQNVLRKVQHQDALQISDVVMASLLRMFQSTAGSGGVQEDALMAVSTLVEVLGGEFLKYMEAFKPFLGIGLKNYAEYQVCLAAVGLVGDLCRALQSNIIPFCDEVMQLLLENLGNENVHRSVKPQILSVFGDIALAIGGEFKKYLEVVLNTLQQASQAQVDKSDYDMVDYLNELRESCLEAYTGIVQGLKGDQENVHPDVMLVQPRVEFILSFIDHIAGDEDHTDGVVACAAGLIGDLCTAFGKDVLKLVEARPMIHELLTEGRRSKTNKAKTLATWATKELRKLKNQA
#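 FRET biosensor Rango (snurportin 1 IBB between N-terminal EYFP and C-terminal Cerulean), 50 nM in PBS/1 mM DTT/0.02% Tween-20/0.1% BSA, preincubated 5 min RT with compound; 0.125 microM importin beta added, 45 min RT, CFP/YFP FRET ratio read.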
# Rango dissoc inh = prevents RanGTP from dissociating the Rango-importin beta complex; Biochemical FRET Rango-importin beta, RanGTP-induced dissociation; Potency, µM (series often up to 46.1 µM), without a hit: top-dose activity change, negative = inhibition; 340,000 tested, 0.071% active; AID 540253; active means falling FRET ratio curve, often poorly fitted, with flat reads before Ran was added; inconclusive means other falling curves, or compound fluorescence or quenching; inactive means flat or rising ratio curve;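 further: potency means the concentration at half of the fitted maximal effect; % of control where 0% means no effect; nearly all actives have a fitted effect of over 45% in size; -100% = wells without RanGTP and RCC1; the record marks most hits as doubtful in a second field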
#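 Rango/importin beta premix (0.1/0.25 uM final), PBS + 1 mM DTT + 0.02% Tween-20 + 0.1% BSA; cpd 5 min RT; FRET pre-read; + RanGTP-RCC1 (0.6 uM Ran, 2 mM GTP, 0.2 uM RCC1); 45 min RT; FRET post-read, ex 430, em 486/530 nm.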
# GLA inh pH 4.5 = blocks human alpha-galactosidase A at pH 4.5 | P06280 | purified enzyme, 4-MU-alpha-Gal fluorescence, pH 4.5 | activity change, negative = inhibition, % at 105 µM | 230,000 tested, under 10 active; inconclusive = small, poorly fitted or top-dose-only inhibition, or a rising curve; inactive = flat fitted curve, though single readings scatter; no compound was filed as active;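 further: 0% = full activity with enzyme and -100% = basal without enzyme; dose as in the result columns while the protocol names 77 µM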
# An asterisk follows results filed as active; ? = inconclusive; . = no result given; [ ] = dose if it differs, or a comment.
# Values run as follows: miR-21 reporter, Rango-impB inh, Rango dissoc inh, GLA inh pH 4.5
O=C(COC(=O)C1c2ccccc2Oc2ccccc21)Nc1ccc2c(c1)OCO2
  -12%, -1.6%, -11%, 3
O=C1CSC(c2ccncc2)N1Cc1ccc(F)cc1 (stereo not given)
  3%, 2.1%, -5%, -1
COC(=O)c1ccc(CSc2nnc(CNC(=O)c3ccc(OC)cc3)o2)o1
  -5%, 3.3%, 3%, -13
Clc1ccc(-c2nc3ncccn3c2Cl)cc1
  -31%, ?, -16%, ?
COc1ccc(CC(=O)NC(=S)Nc2ccc(S(N)(=O)=O)cc2)cc1
  -2%, 3.0%, 2%, -5
CC(=O)c1cccc(NC(=O)CCn2c(=S)oc3ccccc32)c1
  -4%, -4.4%, 15%, .
O=C(NCCCCc1ccccc1)c1cccc(NC(=O)C2CCC2)c1
  ., -0.4%, -6%, .
CCN1CCN(/C=N/c2nc(C)cs2)CC1
  -29%, -4.8%, -10%, 3
CC(=O)c1cccc(NC(=O)N[C@@H](CC(C)C)C(=O)O)c1
  2%, 0.8%, -15%, .
COC(=O)[C@H](CC(C)C)N(Cc1ccccc1)S(=O)(=O)N(Cc1ccccc1)[C@@H](CC(C)C)C(=O)OC
  ., 2.1%, -14%, .
CN1CCN(c2ccc([N+](=O)[O-])cc2NC(=O)c2ccccc2)CC1
  -7%, -1.4%, 4%, -5
CCOC(=O)c1sc(=S)n2c1[nH]c(=O)c1ccc(C(=O)OC)cc12
  -2%, 0.5%, 0%, -2
CCOc1ccc(C2NC(=O)CCC2[N+](=O)[O-])cc1 (stereo not given)
  3%, -1.4%, -5%, .
CCc1ccc(Nc2n[n+](-c3ccccc3)c(-c3cccc(Cl)c3Cl)s2)cc1
  ., 1.5%, 3%, .
Cc1ccc(-c2nc3sc4c(c3c(=O)n2N)CC(C)(C)OC4)cc1
  -4%, 2.6%, 6%, -11
O=Cc1ccc2ccc3cccnc3c2n1
  -1%, 1.7%, 0%, .
COc1cc(-c2nc3cccc(C)n3c2NCC2CCCO2)ccc1O (stereo not given)
  -10%, -2.5%, -13%, 0
CC1CCCCC12NC(=O)N(CC(=O)NNC(=O)c1ccc(Br)cc1)C2=O (stereo not given)
  ., 2.6%, -6%, .
CCc1ccc(Nc2nc(C)cc(C)n2)cc1
  -42%, -6.0%, ?, .
Cc1ccc(C(C)(C)C)cc1S(=O)(=O)Nc1cccc(C(=O)N2CCN(c3ccccn3)CC2)c1
  ., -1.0%, -5%, .
N=C1/C(=C/c2cccn2-c2cccc([N+](=O)[O-])c2)C(=O)N=C2SC=CN12
  1%, ., ., -8
O=C(NNC(=O)c1ccc(Cl)cc1Cl)c1csc(-c2cccnc2)n1
  -19%, -0.3%, 3%, 5
c1ccc(C[C@H]2CN=C(Nc3ccccc3)N2CC2CCCCCC2)cc1
  ., 0.1%, 1%, .
Cc1ccc(N=C(c2cccs2)N2CCOCC2)cc1
  -52%, 0.0%, -2%, -3
COc1ccc(/C=N\Nc2ncc(F)c(N3CCOCC3)n2)cc1OC
  -17%, 4.4%, -1%, -4
Cc1ccccc1OCC(O)Cn1c(N2CCCCC2)nc2c1c(=O)[nH]c(=O)n2C (stereo not given)
  0%, 0.5%, 36%, .
Cc1ccc(S(=O)(=O)N2CCCCC2C(=O)O)cc1 (stereo not given)
  -6%, 3.1%, 17%, 8
CCn1nc(C)c(CCC(=O)O)c1C
  0%, -2.1%, 13%, 7
CC(=O)c1ccc(OCc2cc(C(=O)N3CC[C@@H]4CCCC[C@H]4C3)no2)cc1
  -47%, -0.3%, 20%, .
CC(C)(C)c1ccc(C(=O)NCc2nnc(SCC(=O)NCc3ccco3)o2)cc1
  -1%, -0.7%, -2%, .
CC(C)(C)c1cc(S(=O)(=O)CCc2ccccn2)cc(C(C)(C)C)c1F
  0%, 3.2%, 20%, -11
Cc1nc(SCC(=O)Nc2c(C)n(C)n(-c3ccccc3)c2=O)[nH]c(=O)c1Cc1ccccc1
  0%, -0.5%, 32%, -3
COc1cnn(-c2ccccc2)c(=O)c1SCc1ccc(Cl)c(Cl)c1
  -14%, 4.2%, -3%, -2
CC1CCN(Cc2ccc(-c3nnn(CC(=O)NC4CCCCC4)n3)cc2)CC1
  -4%, -1.2%, 1%, -26
CS(=O)(=O)N(CC(=O)NCc1ccco1)c1ccc(Cl)cc1Cl
  -3%, 1.4%, 8%, -26
CO/N=C1\CCCc2c(C(=O)NN)sc(SC)c21
  19%, -2.1%, 11%, 4
Cn1ncc2c(NCc3cccc(C(F)(F)F)c3)c(C(=O)O)cnc21
  -2%, ., ., -4
N#Cc1c(-c2ccc(Cl)cc2)c(C#N)c(=O)n(N)c1N
  1%, -3.4%, -1%, 1
Fc1ccc(Cc2nnc(-c3cccs3)o2)cc1
  -42%, 1.3%, -12%, -18
CC(=O)Nc1cccc(OCc2ccc(S(=O)(=O)Cc3ccccc3)cc2)c1
  -12%, -0.5%, -2%, -4
C=CCn1cnnc1SCC(=O)N(C)CC1COc2ccccc2O1 (stereo not given)
  ., -2.0%, 0%, .
O=C(O)c1c(C(=O)O)c(-c2ccc(Cl)c(Cl)c2)n2c1CSC2
  0%, 5.4%, 1%, .
O=C(Nc1ccccc1[N+](=O)[O-])c1cccc(N2C(=O)CCC2=O)c1
  0%, ?, 2%, .
Nc1ccccc1C(=O)N=Nc1[nH]c(N)c2ccccc12
  -41%, -4.4%, -11%, -6
O=C(COC(=O)Cc1cn2ccsc2n1)NC12CC3CC(CC(C3)C1)C2
  -12%, -4.2%, -1%, 15
Cc1cc(C)cc(N(C(=O)CNC(=O)c2ccco2)C(C(=O)NC2CCCCC2)c2ccncc2)c1 (stereo not given)
  -4%, 2.5%, 2%, .
COc1ccccc1C(=O)NC(=S)Nc1ccc(Cc2ccncc2)cc1
  7%, 0.0%, 7%, .
CN(C)S(=O)(=O)c1ccc(Cl)c(NC(=O)CN2CCNC(=O)C2)c1
  -1%, 0.1%, 6%, -11
O=C(NC(=S)Nc1ccc(S(=O)(=O)Nc2nccs2)cc1)c1ccc(Br)o1
  -8%, 3.3%, 3%, 4
O=C(CCC1CCCCC1)NCc1ccncc1
  -6%, -0.5%, 17%, 6
c1csc(-c2ccc(N3CCOCC3)nn2)c1
  2%, 1.4%, 0%, .
Cc1cc2c3c(c1C)C1(C(=O)N3C(C)(C)CC2C)C(C#N)=C(N)Oc2n[nH]c(C)c21 (stereo not given)
  15%, -3.4%, 2%, -6
Cn1c(CSc2ncn[nH]2)nc2ccccc21
  -10%, 1.9%, 0%, 1
COc1ccc2[nH]c(CN3CCN(C(C)C)C(CCO)C3)c(C)c2c1 (stereo not given)
  -1%, 0.0%, 0%, -13
CCc1cc2c(=O)c(-c3ccon3)c(N)oc2cc1OC
  -35%, 2.1%, 4%, -16
CCCc1nc(N2CCOCC2)c2sc(=S)n(-c3ccccc3)c2n1
  -3%, ., ., -2
Cc1cccc(N2CCN(C(=O)c3ccc4c(c3)CCN4S(C)(=O)=O)CC2)c1C
  8%, 0.5%, -8%, .
C/C(=N\N1C(=O)c2ccccc2NC1c1ccccc1)c1ccccc1O (stereo not given)
  -59%, -1.1%, 2%, 8
COc1ccc(N(CC(=O)NCc2ccccc2)S(=O)(=O)c2c(C)noc2C)cc1
  -1%, -3.3%, -2%, -10
Oc1ccccc1C1CC(c2cccs2)=NC(c2cccc(Br)c2)N1 (stereo not given)
  28%, 2.7%, -7%, -13[21.1 µM]

# Brought forward from above: 5 compounds, followed by the next part.
# Values run as follows: miR-21 reporter, Rango-impB inh, Rango dissoc inh, GLA inh pH 4.5
CCCc1nc(N2CCOCC2)c2sc(=S)n(-c3ccccc3)c2n1
  -3%, ., ., -2
Cc1cccc(N2CCN(C(=O)c3ccc4c(c3)CCN4S(C)(=O)=O)CC2)c1C
  8%, 0.5%, -8%, .
C/C(=N\N1C(=O)c2ccccc2NC1c1ccccc1)c1ccccc1O (stereo not given)
  -59%, -1.1%, 2%, 8
COc1ccc(N(CC(=O)NCc2ccccc2)S(=O)(=O)c2c(C)noc2C)cc1
  -1%, -3.3%, -2%, -10
Oc1ccccc1C1CC(c2cccs2)=NC(c2cccc(Br)c2)N1 (stereo not given)
  28%, 2.7%, -7%, -13[21.1 µM]
Cc1ccsc1C(=O)N(Cc1nnc(-c2ccccc2Cl)o1)C1CC1
  ., 0.1%, -15%, .
O=c1c(-c2ccc(Cl)cc2)[n+]([O-])c2ccccc2n1OCc1ccccn1
  1%, -2.7%, -1%, 1
Cc1ccnc2nc(C(=O)OCCOc3ccc(Cl)cc3)nn12
  0%, 0.1%, -6%, 2
Cc1cc(NC(=O)COC(=O)c2n[nH]c3ccccc23)no1
  -18%, 1.2%, 2%, 2
Cc1cc(C)c(S(=O)(=O)N2CCCC(C(=O)NCc3cccnc3)C2)c(C)c1 (stereo not given)
  9%, -1.3%, -4%, .
CCOC(=O)c1c(C)nc(-c2ccccc2)nc1NC(=O)CC
  -50%, 0.9%, 8%, -1
C(/C=C/C=C/Nc1ccccc1)=Nc1ccccc1
  -1%, 2.1%, -2%, 2
COc1ccc(-c2cc3nc4c(c(=O)n3[nH]2)CCC4)cc1
  -39%, -2.1%, -7%, -1
Cc1ccc(COC(=O)c2cccc(S(=O)(=O)N3CCCCC3)c2)cc1
  ., -4.4%, 0%, .
Cc1cccc(NC(=O)c2ccc([N+](=O)[O-])o2)n1
  -2%, 0.1%, -10%, 9
COc1ccc(S(=O)(=O)N2CCCCC2)cc1NC(=O)CCc1nc2ccccc2c(=O)[nH]1
  ., -0.7%, -8%, .
Nc1nc(NCc2ccco2)nc(N2CCCCC2)c1[N+](=O)[O-]
  -6%, -0.8%, -26%, 1
Cc1ccc(C2=NN(C3=NN=C(N)Cc4ncnn43)C(O)(C(F)(F)F)C2)cc1 (stereo not given)
  0%, 2.8%, 21%, 2
COC(=O)c1ccc(C)c(NS(=O)(=O)c2ccc(C)c([N+](=O)[O-])c2)c1
  -1%, -4.2%, 8%, 7
Cc1cccc(C)c1NC(=O)Nc1ccccc1-n1ccnc1
  -4%, -1.1%, 3%, -1
O=C(c1ccco1)N1CCN(Cc2cc(=O)c(OCc3ccccc3Cl)co2)CC1
  ., -2.7%, 4%, .
NC(=S)NNc1cccc2cccnc12
  -22%, -0.1%, -20%, -1
Cn1c(SCc2cccc(Cl)c2)nc(C(F)(F)F)cc1=O
  -5%, 0.1%, 12%, -5
Cc1cc(C)cc(NC(=O)CSc2nnc(-c3cc(C)[nH]n3)n2N)c1
  1%, 0.0%, 3%, .
CCCCN1CC(=O)N2[C@H]3c4ccc(OC)cc4OC[C@@H]3[C@H](c3ccccc3)[C@]2(C)C1=O
  ., -1.5%, 10%, .
CC(=O)OCC[n+]1c(C)n(-c2ccccc2)c2ccc(Cl)cc21
  -1%, 0.3%, 10%, -2
Cc1ccc(S(=O)(=O)NCCC(=O)OCc2ccc([N+](=O)[O-])cc2)cc1C
  ., 3.8%, -11%, .
COc1ccc(-c2noc(CCC(=O)NCC3CCCO3)n2)cc1 (stereo not given)
  -9%, -6.2%, 22%, 1
CCOC(=O)C1(CC2CC2)CCN(Cc2cc(Cl)c(O)c(OC)c2)CC1
  2%, 0.2%, 4%, 2
Cc1nn2c(-c3ccc(Cl)cc3)ccnc2c1-c1ccccc1
  0%, 1.9%, 11%, 8
O=C(Nc1ccc2oc(-c3ccccc3F)nc2c1)c1ccco1
  -46%, 4.3%, 1%, -16
Cc1ccc(NC(=O)CN2C(=O)NC3(CCCC3)C2=O)c(Cl)c1
  -1%, -2.6%, -2%, .
N#Cc1nc(-c2cccs2)oc1NCCCN1CCOCC1
  -18%, 9.0%, -10%, 28

# A draw from above in order of SMILES length, largest number first:
# Values run as follows: miR-21 reporter, Rango-impB inh, Rango dissoc inh, GLA inh pH 4.5
O=C(c1ccco1)N1CCN(Cc2cc(=O)c(OCc3ccccc3Cl)co2)CC1
  ., -2.7%, 4%, .
Nc1nc(NCc2ccco2)nc(N2CCCCC2)c1[N+](=O)[O-]
  -6%, -0.8%, -26%, 1
CCOC(=O)c1c(C)nc(-c2ccccc2)nc1NC(=O)CC
  -50%, 0.9%, 8%, -1

# These rows are one share of the data; rates above refer to the full screens.
